Screening results: PubChem, several laboratories
ALR H2O2 inh = human ALR oxidase inhibition via reduced H2O2; P55789; actives 3.8% (n = 290,000); inhibition, % (concentration not given with the values); purified ALR, DTT oxidation, H2O2 HRP-luminol luminescence;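 active = mean and each replicate at 75% or more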;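 note: stock transfer was 7.5 nL into about 7.5 µL; 0% = neutral wells and 100% = wells with inactivated enzyme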
Target sequence (P55789 whole entry, looked up): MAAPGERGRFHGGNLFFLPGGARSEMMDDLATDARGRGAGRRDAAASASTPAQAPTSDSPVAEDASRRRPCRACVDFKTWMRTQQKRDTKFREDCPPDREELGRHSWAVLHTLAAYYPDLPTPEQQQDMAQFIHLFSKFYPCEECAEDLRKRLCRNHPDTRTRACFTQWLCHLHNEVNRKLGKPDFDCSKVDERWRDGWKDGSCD
FGF22 binding = binders of recombinant human FGF22 by thermal shift; calls only at 9.99 µM; Q9HCT0; actives 1.5% (n = 340,000); AID 651658; SYPRO orange fluorescence; percent of sucrose octasulfate shift, DMSO zero;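 active = melting point raised past a set limit in the mean and every replicate; three in four hits are not shown here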
Target sequence (Q9HCT0 whole entry, looked up): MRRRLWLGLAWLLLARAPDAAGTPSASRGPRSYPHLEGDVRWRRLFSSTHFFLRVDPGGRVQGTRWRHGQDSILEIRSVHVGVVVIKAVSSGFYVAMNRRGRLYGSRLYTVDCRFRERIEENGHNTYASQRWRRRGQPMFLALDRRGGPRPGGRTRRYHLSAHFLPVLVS
HNF4A DNA FP = change in binding of human HNF4 alpha to DNA; activity change, % at 10 µM; P41235; HNF4a-FITC DNA binding, fluorescence polarization, 1 h; AID 1224865; actives 0.3% (n = 360,000); in the data active = activity change above about 30%, passing the limit was not always enough;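 note: controls were the assay level and a saturating level of protein; the project sought stronger binding though the title names inhibitors; some compounds called inactive have numbers as strong as hits; positive values seem to mean higher polarization but the record does not say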
Ecoli rRNA inh = inhibitors of bacterial rRNA selective over humanized ribosomes; E. coli WT GFP vs humanized-ribosome RFP mutants, fluorescence, 24 h; stronger effect = lower value; DMSO median 0, no signal -100; GFP signal change (wild-type ribosome), % (test concentration not listed); actives 1.6% (n = 350,000);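 active = significant combined selectivity score with lowered wild-type GFP, culture density cut under 30%, mutant RFP and density less affected; inactive = any of these conditions unmet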; note: one replicate is shown; some compounds called inactive have numbers as strong as hits
UCH37 inh = blocks the human deubiquitinase UCH37; AID 588478; Q9Y5K5; actives 0.33% (n = 330,000); purified proteasome/UCH37, Ub-AMC cleavage fluorescence; inhibition, % (no concentration beside the values);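 active = mean of two replicates above 20%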;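 note: 0% = compound-free wells with enzyme and 100% = wells lacking proteasome; stock transfer was 100 nL into about 20 µL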
Target sequence (Q9Y5K5 whole entry, looked up): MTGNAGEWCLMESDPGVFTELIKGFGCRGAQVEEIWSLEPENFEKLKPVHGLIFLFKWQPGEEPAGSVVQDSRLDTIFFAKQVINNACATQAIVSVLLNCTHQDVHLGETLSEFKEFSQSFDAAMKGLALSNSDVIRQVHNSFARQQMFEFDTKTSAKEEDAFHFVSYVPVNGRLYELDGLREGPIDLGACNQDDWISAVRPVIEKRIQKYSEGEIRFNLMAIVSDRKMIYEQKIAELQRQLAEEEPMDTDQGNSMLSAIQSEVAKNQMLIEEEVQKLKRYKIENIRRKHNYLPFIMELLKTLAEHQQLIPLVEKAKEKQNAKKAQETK
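Material: Human UCH37 enzyme supplied as purified proteasome complex | Schedule: 30 min preincubation with enzyme, 25 min cleavage at room temperature | Detection: AMC fluorescence 355/460 nm | Measure: % inhibition of Ub-AMC cleavage fluorescence | Controls: Wells without proteasome as full block, compound-free enzyme plus substrate as uninhibited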
Beta2AR agonist = activates human beta-2 adrenergic receptor causing internalization; P07550; Am2.2-beta2AR cells, FAP receptor internalization, flow cytometry; reference of the scale not given here; response, % (concentration not given with the values); actives 0.43% (n = 340,000);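 active = response above a set limit, near 3 SD of response in nonfluorescent compounds, cut at about 42% in these data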;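 note: stock transfer was 100 nL into about 11 µL; a reference agonist was the positive control; negative values mostly stem from fluorescent compounds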
Ecoli growth = E. coli growth inhibition; Escherichia coli growth, OD600, 23 h; stronger effect = lower value; OD600 absorbance (no concentration beside the values); actives 0.21% (n = 330,000);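 active = OD600 absorbance below the run mean of sample wells minus 3.6 SD, in any replicate, cut at about 0.56 in these data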;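 note: stock transfer was 300 nL into about 60 µL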
Ecoli rRNA inh OD600 = further read-out of Ecoli rRNA inh, marked with its call; OD600 change, %; measured here: OD600 growth;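 optical density of the mix in the first replicate; 0 = DMSO median and -100 = no signal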
Ecoli rRNA inh RFP = also measured in Ecoli rRNA inh; calls as there; RFP signal change, %; measured here: RFP humanized mutant strains;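 first replicate; 0 = DMSO median and -100 = no signal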
An asterisk follows results filed as active; i = inactive; nt = no result given; & = joins results of further samples. An excerpt; count on the stated rates, not on these rows.

Sample of the layout:
SMILES	ALR H2O2 inh	FGF22 binding	HNF4A DNA FP	Ecoli rRNA inh	Ecoli rRNA inh OD600	Ecoli rRNA inh RFP	UCH37 inh	Beta2AR agonist	Ecoli growth
CC(C)=C(C)c1cc2nc(NCCCN(C)C)n(C)c(=O)c2s1	nt	i	-0.5	1	2	2.5	nt	nt	nt
O/N=C(\COc1ccccc1O)c1ccccc1	77*	nt	30	nt	nt	nt	nt	-3	nt

This part in full (from the top)
SMILES	ALR H2O2 inh	FGF22 binding	HNF4A DNA FP	Ecoli rRNA inh	Ecoli rRNA inh OD600	Ecoli rRNA inh RFP	UCH37 inh	Beta2AR agonist	Ecoli growth
CC(C)=C(C)c1cc2nc(NCCCN(C)C)n(C)c(=O)c2s1	nt	i	-0.5	1	2	2.5	nt	nt	nt
O/N=C(\COc1ccccc1O)c1ccccc1	77*	nt	30	nt	nt	nt	nt	-3	nt
Nc1ccc(C(=O)N/N=C/c2cn(Cc3cccc(F)c3)c3ccccc23)cc1	-18	i	0.6	-4	-16	-0.2	nt	24	nt
CCC(C)[C@H](NC(=O)NC1CCCc2ccccc21)C(=O)OC (stereo partly specified)	-4	i	1.3	6	-5	-1.5	2.8	7	0.68
Cc1ccc(S(=O)(=O)N2CCN(C(=O)Cc3ccccc3)CC2)cc1	-23	nt	-1.9	nt	nt	nt	5.0	1	0.7
O=C(c1ccc2c(=O)n(-c3ccccc3)c(=O)[nH]c2c1)N1CCCCC1	-9	i	0.1	4	3	-5.0	-2.0	-5	0.71
CN=C(Nc1ccc(Br)cc1)SC1CC(=O)N(c2ccc(OC)cc2)C1=O (stereo unspecified)	-2	i	0.2	-2	-2	-4.1	2.6	8	0.7
COCCCn1nnnc1SCC(=O)N1CCCC1	nt	nt	1.7	nt	nt	nt	2.8	-3	0.68
COc1cccc(NC(=O)CN2C(=O)COc3ccc(S(=O)(=O)N4CCOCC4)cc32)c1	-3	i	2.7	4	16	-1.8	2.6	1	0.71
COc1ccc(OC)c(-c2oc3ccccc3c(=O)c2O)c1	-3	nt	1.6	nt	nt	nt	-0.6	-11	0.75
COc1ccc([N+](=O)[O-])cc1NC(=O)c1cc(C)c(C)o1	-30	i	1.7	7	9	-1.8	0.6	3	0.67
O=C1OC(Oc2ccccc2)(c2ccccc2)c2ccccc21 (stereo unspecified)	nt	nt	-0.5	nt	nt	nt	2.5	3	0.67
O=C(CN1CCN(S(=O)(=O)/C=C/c2ccccc2)CC1)Nc1ccccc1N1CCOCC1	-5	i	0.4	-18	-15	-6.2	3.6	-6	0.69
Cc1cc(C)c[n+](CC(=O)c2ccc(C)c([N+](=O)[O-])c2)c1	8	i	-2.3	5	8	26	2.5	-6	0.69
Cc1ccccc1CSc1nc2[nH]ncc2c(=O)[nH]1	38	i	0.5	-7	-15	-7.9	3.7	-3	0.68
CN(C)CCNC(=O)c1cccc2ccc(-c3ccc(-c4ccccc4)cc3)nc12	nt	i	-5.1	-57	-78	-15	nt	-1	nt
CCC1CCCCN1Cc1cc(OC)c(O)c([N+](=O)[O-])c1 (stereo unspecified)	20	nt	nt	nt	nt	nt	4.3	nt	0.64
COC(=O)c1ccc(NC(=O)CCN2CCCCC2)cc1	6&-15	nt	-0.4&0.5	nt	nt	nt	-2.4&3.9	0&-9	0.69&0.76
Cc1ccc(S(=O)(=O)N2CCC(C(=O)N(C)C3CCS(=O)(=O)C3)CC2)cc1 (stereo unspecified)	-1	nt	5.1	nt	nt	nt	0.8	-6	0.68
Cc1c(C(=O)NNc2cc(=O)n(C)c(=O)n2C)cccc1[N+](=O)[O-]	-3	i	0.7	-6	9	-1.0	4.0	-5	0.74
CC(C)[C@H](NC(=O)C1CCN(C(=O)[C@@H]2CCCN2)CC1)C(=O)NCc1ccc(F)cc1	-8	i	1.4	nt	nt	nt	-2.0	7	0.71
COC(=O)C1CCN(C(=O)C23CCC(C)(C(=O)O2)C3(C)C)CC1 (stereo unspecified)	-2	nt	3.1	nt	nt	nt	2.1	10	0.69
COc1ccc(C(=O)N/N=C/c2ccc(N(C)c3ccccc3)cc2)cc1	-4	i	-2.5	7	11	2.7	nt	11	nt
COc1ccc(CN(C)CC(=O)Nc2ccc(Cl)cc2C(F)(F)F)c(OC)c1	-19	nt	0.7	nt	nt	nt	3.4	-7	0.63
CCc1ccccc1NC(=O)Cn1c(=O)n(-c2ccc(CC(=O)NCC3CCCO3)cc2)c(=O)c2ccccc21 (stereo unspecified)	-2	i	-0.6	6	3	-0.4	0.9	-4	0.7
C/C=C/c1ccc(OCCOc2cccc3cccnc23)c(OC)c1	-32	i	2.7	-13	0	7.5	0.7	-4	0.67
CN1CC2([N+](=O)[O-])CC=C(Oc3ccccc3)C([N+](=O)[O-])(C1)C2 (stereo unspecified)	-5	nt	-2.5	nt	nt	nt	0.7	2	0.7
C#CCOCCOCCOCCNc1nc(N2CCN(C(=O)C([C@@H](C)O)n3cc([C@@H](N)CCCCN)nn3)CC2)nc(N2CCN(C(=O)[C@H](CC(N)=O)n3cc([C@@H](N)C(C)C)nn3)CC2)n1 (stereo partly specified)	nt	i	5.4	11	12	1.3	2.3	-4	0.69
Cc1cc(C)n(-c2nc3ccccc3nc2N2CCN(S(=O)(=O)c3cccc(C#N)c3)CC2)n1	nt	i	-0.6	-2	-5	3.2	-15	4	0.7
CN(Cc1cccs1)C(=O)C1CC(=O)N(Cc2ccccc2)C1 (stereo unspecified)	11	i	-0.2	12	13	1.8	4.7	-4	0.7
O=C(Nc1ccc(F)c(Cl)c1)c1cc(C2CCCN(S(=O)(=O)c3cccc4cccnc34)C2)on1 (stereo unspecified)	nt	i	-2.2	-1	2	0.2	nt	nt	nt
O=C(CSc1nnc(-c2ccccn2)n1Cc1ccco1)c1ccccc1	71	nt	1.2	nt	nt	nt	0.3	-10	0.71
Cn1ccsc1=NC(=O)c1ccc(OC(F)(F)F)cc1	0	i	-2.5	5	10	1.1	-0.8	7	0.63
C[C@@H](CO)NC(=O)c1[nH]cnc1C(=O)Nc1cccc(Cl)c1	nt	i	2.4	-8	-5	1.8	nt	nt	nt
CN(C)CCCNc1nc(-c2ccccc2)nc2ccccc12	-10	i	-1.4	26	12	3.8	3.3	-3	0.65
C[C@H](CO)N1C[C@H](C)[C@@H](CN(C)C(=O)Nc2ccccc2)Oc2ccc(NC(=O)NC3CCCCC3)cc2C1=O	-1	i	-0.5	-7&-4	-7&-17	-1.5&-0.9	-0.9	-18	nt
O=C(CNS(=O)(=O)c1ccccc1)N1CCN(Cc2ccccc2)CC1	2	i	0.3	7	12	2.5	0.7	-1	0.71
O=C(CCCc1ccccc1)c1ccc2c(c1)OCCO2	-6	i	-0.4	-30*	-20*	-3.4*	3.8	2	0.68
COc1cc(OC)cc(OCC(O)Cn2ccnc2)c1 (stereo unspecified)	-7	nt	0.4	nt	nt	nt	2.3	-6	0.66
Fc1cccc(-c2oncc2-c2nnnn2-c2ccc(Cl)cc2)c1	-5	nt	0.1	nt	nt	nt	4.7	-1	0.68
CC(C)NC(=S)NC(=O)/C=C/c1ccc(F)cc1	0	i	2.2	9	3	-1.3	5.7	3	0.71
COc1ccc(OCC(=O)NCC(c2cccs2)N2CCOCC2)cc1 (stereo unspecified)	nt	i	-2.5	1	0	2.3	-0.6	0	0.68
COc1ccccc1NC(=O)c1ccccc1Nc1ccccc1	0	i	-5.4	-10	-19	-19	3.4	-5	0.65
COc1ccccc1CNC(=O)CCCNC(=O)c1ccc(Cl)cc1	-3	i	-2.5	1	-4	-1.2	2.1	-8	0.7
C=CC[C@@H](CC(=O)N[C@@H](CO)Cc1ccccc1)C(=O)N[C@H](COC(=O)[C@@H](CC=C)Cc1ccc(F)cc1)Cc1c[nH]c2ccccc12	0	i	3.0	6	6	0.8	4.4	0	nt
CC1(NC(=O)C23CC4CC(CC(C4)C2)C3)CCS(=O)(=O)C1 (stereo unspecified)	-4	nt	2.0	nt	nt	nt	4.1	1	0.66
CCOc1ccc(C(=O)OC2CCCN(C)C2)cc1 (stereo unspecified)	-13	i	5.4	11	9	-0.8	2.2	-7	0.69
Cn1nc(-c2ccc(Cl)cc2)nc2c(=O)n(C)c(=O)nc1-2	-176	nt	nt	nt	nt	nt	92*	nt	0.48*
CCSc1nc(=S)cc(C)[nH]1	58	i	2.5	2	-10	-6.6	5.0	2	0.62
Oc1ccc(Cl)c2cccnc12	nt	i	3.2	14	10	-0.6	1.0	9	0.29*
Cc1ccc(C(=O)Nc2cccc(C(=O)O)c2)cc1S(=O)(=O)N1CCCCC1	-1	nt	1.6	nt	nt	nt	5.7	2	0.75
Fc1cc(F)c2nc(Nc3nc4cc5c(cc4s3)OCO5)sc2c1	nt	i	15	11	2	1.2	-44	7	0.7
CC(Sc1nnc(-c2ccco2)n1N)C(=O)NCc1ccc2c(c1)OCO2 (stereo unspecified)	nt	i	-2.1	6	11	1.4	3.4	-4	0.7
O=C(COC(=O)CNC(=O)c1sc2ccccc2c1Cl)Nc1cc(Cl)cc(Cl)c1	-3	i	0.8	10	4	1.7	2.3	2	0.68
CN(C)C(CNC(=O)C1CCN(S(=O)(=O)c2ccccc2C(F)(F)F)CC1)Cc1ccccc1 (stereo unspecified)	nt	i	3.1	1	-4	-0.1	0.6	3	0.71
CCCCn1c(SCC(=O)N2CCC(C(=O)OCC)CC2)nc2cc(S(N)(=O)=O)ccc21	-13	nt	-2.3	nt	nt	nt	3.4	-18	0.67
O=C(CSc1nc2c(c(=O)n1-c1ccc(Cl)cc1)SCC2)N1CCOCC1	-10	i	1.0	-4	0	-1.4	7.5	-7	0.72
COC(=O)Nc1nc(-c2ccccc2)c(C(=O)c2ccccc2)s1	2	nt	2.4	nt	nt	nt	2.3	12	0.68
CCSc1nnc(NC(=O)CN2C(=O)C3CC=CCC3C2=O)s1 (stereo unspecified)	-4	i	0.8	-1	1	1.4	1.8	-3	0.67
COc1cc(OC)c2cc(C(=O)N[C@H](C(=O)N3CCC[C@H]3C(=O)O)C(C)C)n(C)c2c1	nt	i	-0.3	nt	nt	nt	-10	-3	0.71

(further entries)
SMILES	ALR H2O2 inh	FGF22 binding	HNF4A DNA FP	Ecoli rRNA inh	Ecoli rRNA inh OD600	Ecoli rRNA inh RFP	UCH37 inh	Beta2AR agonist	Ecoli growth
C=C(C)C(=O)Nc1cccc(C2=NOC3(C2)C[C@H](C(N)=O)N(C(=O)COc2ccc(Cl)cc2)C3)c1 (stereo partly specified)	nt	i	-57	nt	nt	nt	2.5	-18	nt
CSc1nc(N(CCO)CCO)c2sc3nc(-c4ccco4)c4c(c3c2n1)CCC4	nt	nt	-53	nt	nt	nt	-27	8	0.81
CC(=O)Nc1c(F)cc(Br)cc1F	nt	i	-3.5	nt	nt	nt	2.3	-1	0.64
C/C(=N/NC(=O)c1ccc(C)s1)c1cccnc1	34	i	-1.7	-6	-2	0.0	nt	-10	nt
C=CCN1C(=O)c2ccc(C(=O)NCC(=O)Nc3c(C)cc(C)cc3C)cc2C1=O	3	i	0.4	9	6	0.9	4.0	-24	0.69
Oc1ccc(Br)cc1-c1cc(-c2ccccc2)n[nH]1	-4	nt	-0.5	nt	nt	nt	2.5	9	0.69
O=C(Oc1ccccc1)N1CCCC1	-3	i	-0.5	19	18	0.2	1.3	0	0.64
COc1ccc(NC(=O)c2cc3c(=O)n(C)c4ccccc4c3n2C)cc1Cl	-4	i	-0.1	13	12	-6.5	-64	13	0.71
COc1ccc(/C(N)=N/OC(=O)CCCN2C(=O)c3ccccc3C2=O)cc1OC	1	i	-3.9	18	9	-2.8	0.1	-2	0.67
COc1ccc(N2C(=O)Cc3ccccc3C2=O)cc1	9	i	6.2	4	14	0.2	1.5	4	0.72
